# Screens: PubChem BioAssay, National Center for Advancing Translational Sciences (NCATS)
# Vaccinia Venus – inhibitors of vaccinia virus (Venus reporter). hit rate 0.46% among 330,000. Potency, µM (doses to about 36.5 µM), for inactives: top-dose activity change, negative = inhibition, hits mostly inhibitors. Vaccinia virus Venus reporter expression, fluorescence; active means well fitted inhibition curve with a large enough effect; inconclusive means small, poorly fitted or top-dose-only effect; inactive means no such curve, though single readings can be large or run the other way; tested in A549 cells; note: nearly all actives have a fitted effect of over 30% in size; inactives centre near -10
# VACV mCherry inh – inhibitors of vaccinia virus infection (mCherry reporter signal). Potency, µM (highest dose often 36.5 µM), without a hit: at the highest dose activity change, negative = inhibition, most hits filed as inhibitors. Vaccinia virus mCherry reporter infection, fluorescence; about a quarter of the inactives have no number. hit rate 0.63% among 310,000; active = well fitted inhibition curve with a large enough effect; inconclusive = small, poorly fitted or top-dose-only effect; inactive = no such curve, though single readings can be large or run the other way; tested in A549 cells; note: nearly all actives have a fitted effect of over 35% in size; inactives centre near -10
# * marks the source's active call; other numbers are inactive results; i = inactive; ? = inconclusive; / = no result given; & = joins results of further samples; [ ] = dose if it differs, or a comment. % is set by controls: 0 for no effect and ±100 for the full control effect; potency is the fitted concentration of half-maximal effect.
SMILES | VACV mCherry inh | Vaccinia Venus
CCOC(=O)c1ccc2nc(NC(=O)C(C)C)sc2c1 | i | -18%
COc1ccccc1/C=N\Nc1ccccc1[N+](=O)[O-] | i | -17%
Cc1ccc(NC(=O)C(=O)NNC(=O)c2cccs2)cc1 | -11% | -16%
CC(C)c1ccccc1NC(=O)C1CC(=O)N(C2CCCC2)C1 (centres undefined) | -15% | -2%
O=C(C1CCC(CNc2c(N3CCCCC3)c(=O)c2=O)CC1)N1CCN(C2CCCCC2)CC1 (centres undefined) | 6%[7.34 µM] | 13%[7.34 µM]
O=C(NCCCN1CCOCC1)C(=O)c1c[nH]c2ccccc12 | 0% | -11%
O=C(CCCn1c2ccccc2c(=O)c2ccccc21)Nc1cccc(Cl)c1 | -25% | -16%
CCOC(=O)C(CCCCOc1cccc(CC)c1)C(=O)OCC | -18% | -11%
CCCCCCN1CCN(C2CN(Cc3cn(Cc4cccc(C(F)(F)F)c4)nn3)S(=O)(=O)C2)CC1 (centres undefined) | -2% | -7%
O=C(CO/N=C/c1c(Cl)cccc1Cl)NNC(=O)c1cccc(Cl)c1 | -15% | -3%
Cc1cc(C(=O)c2ccccc2)c(NC(=O)CCl)s1 | -2% | -16%
CCC(Sc1nnc2c(n1)[nH]c1ccccc12)C(=O)Nc1nnc(C(C)C)s1 (centres undefined) | -23% | -18%
COc1cccc(C2(O)CCN(C(=O)C3CC3)CC2)c1 | -19% | -17%
CN(C(=O)c1ccc2c(Cl)c3c(nc2c1)CCC3)c1ccccc1 | -11% | -29%
N/C(=N\N=C\c1cccs1)SC1CC(=O)N(c2ccc(Br)cc2)C1=O (centres undefined) | -18% | -21%
CN(C)c1ccc(NC(=O)Cn2ncn3c(cc4ccccc43)c2=O)cc1 | i | -4%
CCCc1nc2ccc(NC(C)=O)cc2c(=O)n1Cc1ccc(Cl)cc1 | i | -18%
COc1ccccc1C1CC(=O)Oc2ccc(C(C)(C)C)cc21 (centres undefined) | -5% | -7%
CCC(C)(C)n1nnnc1C(c1cccs1)N1CCCCC1 (centres undefined) | -1% | -11%
Cc1cc(C)nc(NNC2=CC(=[N+]3CCCCC3)CC(C)(C)C2)n1 | 2% | -3%
Cc1cccc(NC(=O)CSc2nc3ccccc3nc2N2CCCC2)c1C | i | -18%
CS(=O)(=O)c1ccc(N)c(SSc2cc(S(C)(=O)=O)ccc2N)c1 | i | -6%
CCn1c(CSCc2ccc(C)cc2)nnc1SCC(=O)NCc1ccccc1 | / | -10%
CC1CCN(C(C(=O)Nc2ccc3c(c2)OCO3)c2ccccc2)CC1 (centres undefined) | -2% | -12%
Cc1cccc(NC(=S)NCc2ccc(F)cc2)c1 | -10% | 0%
COc1cccc(CN2CC(C(=O)NCc3cnn(C)c3)CCC2=O)c1 (centres undefined) | -7% | -2%
Cc1oc2ccc(NS(=O)(=O)c3ccc(C(C)(C)C)cc3)cc2c1C(=O)Nc1ccccc1 | / | -28%
CCCN(CC(=O)Nc1ccccc1C)C(=O)c1ccc(N2CCCC2)c([N+](=O)[O-])c1 | -22% | -13%
CCS(=O)(=O)c1ccc(C(=O)N2CCN(c3nc4c(OC)ccc(C)c4s3)CC2)cc1 | -13%[7.34 µM] | -17%[7.34 µM]
COc1ccccc1/C=C(/NC(=O)c1ccccc1)C(=O)NCCCn1ccnc1 | -11%[7.34 µM] | -4%[7.34 µM]

# Compound profiles (already shown). Order of values: VACV mCherry inh	Vaccinia Venus
# `CCOC(=O)C(CCCCOc1cccc(CC)c1)C(=O)OCC` across the screens: -18%	-11%
# `CCn1c(CSCc2ccc(C)cc2)nnc1SCC(=O)NCc1ccccc1` across the screens: /	-10%

# The listing continues:
SMILES | VACV mCherry inh | Vaccinia Venus
O=[N+]([O-])c1ccc(CN2CC(N3CCN(CCO)CC3)CS2(=O)=O)cc1 (centres undefined) | -19% | -16%
O=C(NCCCn1ccnc1)C(Cc1ccc([N+](=O)[O-])cc1)N1C(=O)c2ccccc2C1=O (centres undefined) | / | -16%
COCc1cc(N2CCCC2)nc(-c2ccccc2)n1 | -3% | -3%
Cc1nc(C)c(C(=O)OCC(=O)NCc2ccccc2Cl)s1 | 3% | -4%
Cc1csc(NC(=O)c2ccc(C)s2)n1 | -9% | 4%
C=CCNC(=O)COc1ccc(Oc2ccccc2)cc1 | -6% | 3%
CCOC(=O)C1CCCN(C/C=C/c2ccccc2)C1 (centres undefined) | -8% | -1%
CN(C(=O)C1CCCN(c2ncnc3c2nc2n3CCCCC2)C1)c1ccccc1F (centres undefined) | -16% | -7%
O=C(Nc1nc2ccccc2s1)c1ccc(F)cc1 | 5% | -20%
CCCCOC(=O)Cn1c(=O)oc2ccc(C)cc21 | i | 7%
CCOC(=O)C1=CCC(c2cc3ccc(OC)cc3n2C(=O)OC(C)(C)C)NC1 (centres undefined) | ? | -21%
Cc1ccc(C(=O)NCC(=O)OCC(=O)c2ccc(C)c([N+](=O)[O-])c2)cc1 | i | -2%
C[N+]1(C)CCOC(O)(c2ccc(-c3ccc(C4(O)C[N+](C)(C)CCO4)cc3)cc2)C1 (centres undefined) | -5%&-4% | -11%&-19%
COc1cccc(N(CC(=O)NCc2ccco2)C(=O)CCC(=O)Nc2nccs2)c1 | 6% | -9%
O=C(Nc1cccc2ncccc12)c1ccco1 | -7% | 12%
C[C@H](CO)N1C[C@H](C)[C@H](CN(C)C(=O)c2ccncc2)OCc2ccccc2-c2c(n(C)c3ccccc23)C1=O | i | -12%
CC(C)(C)c1cc(NC(=O)c2cccc(S(=O)(=O)N3CCOCC3)c2)no1 | -14% | -8%
Cc1cc(NS(=O)(=O)c2ccc(NC(=O)COc3c(C)cc(Br)cc3C)cc2)no1 | ? | -20%
CCOc1cc(CNC(=O)c2ccc(NC(=O)c3nsc4ccccc34)cc2)ccc1OC | -13%[7.34 µM] | -5%[7.34 µM]
COc1ccc(CNC(=O)c2cnc3ccc(C)cn3c2=O)cc1 | -12% | -11%
Cc1ccc(C(C[N+](=O)[O-])c2c(C)[nH]n(-c3ccccc3)c2=O)cc1 (centres undefined) | 0% | -13%
COc1ccc(C2CC(c3cccc(Br)c3)=NN2c2ccc(S(N)(=O)=O)cc2)cc1 (centres undefined) | ? | ?
Cc1ccc(S(=O)(=O)NCC(=O)N(CC(=O)NC(C)(C)C)Cc2ccc3c(c2)OCO3)cc1 | i | 2%
COCCNc1nc(NCc2ccccc2OC)c2sccc2n1 | ? | -18%
CCOc1ccccc1NC(=O)CN1CCC(NC(=O)c2ccccc2C)CC1 | 16% | -8%
Cc1nc2ncnn2c(C)c1CCC(=O)O | -16% | -10%
CC(=O)N(c1ccc(Cl)cc1)c1nc(C)cc(C)c1C#N | 10% | 8%
Cc1ccc(S(=O)(=O)N2C[C@H]3C(=O)C[C@@H](c4ccccc4F)N(S(=O)(=O)c4ccc(C)cc4)[C@H]3C[C@H]2c2ccccc2)cc1 | -15% | -13%
O=C(CSc1nnc2c(Cl)cc(C(F)(F)F)cn12)N(Cc1ccccc1)Cc1ccccc1 | ? | ?
Cc1nnc(SCC(=O)c2c(N)n(C)c(=O)n(C)c2=O)[nH]c1=O | -13% | -3%
Oc1[nH]c2ccccc2c1N=NC(=S)NCC1CCCO1 (centres undefined) | -11% | -18%
COc1ccc([C@@H]2C[C@H]3[C@@H](CN2S(=O)(=O)c2ccccc2)C(=O)C[C@@H](c2cccc(Cl)c2)N3S(=O)(=O)c2ccc(C)cc2)cc1 | 14% | -8%
Cc1ccc(S(=O)(=O)N2CCC(C(=O)OCC(=O)N3CCC(C)CC3)CC2)cc1C | i | -3%
CN(C)Cc1ccccc1-c1cc(Nc2ccccc2)ncn1 | i | 0%
O=C(Cn1c(SCCOc2ccccc2Cl)nc2ccccc21)N1CCCCC1 | 7% | 1%
O=C(CN(Cc1ccc(Cl)c(Cl)c1)S(=O)(=O)c1ccccc1)N/N=C\c1ccc2c(c1)OCO2 | / | -5%
Cc1ccc(C2(O)CCN3CCCCC32)cc1 (centres undefined) | -9% | -5%
CNC(=O)c1ccc(=O)n(Cc2cccc(C(F)(F)F)c2)c1 | i | -17%
Cc1nn2c3ccccc3n(Cc3ccccc3)c2nc1=O | -14% | -3%
CC(C)Cc1nc2sc3c(c2c(=O)n1N)CC(C(C)C)OC3 (centres undefined) | -1% | -25%
Cn1cnnc1Sc1ccc(CN2CCOc3ccc(C4=Cc5ccccc5C4)cc3C2)o1 | -4% | -14%
CCN(CC)C(=O)c1cccc(-c2csc(C(C)(NC(C)=O)c3ccc(OC)cc3)n2)c1 (centres undefined) | i | -13%
Cc1ccc(C)c(S(=O)(=O)N2CCCOC2CNC(=O)C(=O)NCc2cccs2)c1 (centres undefined) | -22% | -19%
O=C(Cn1c(=O)n2nc(-c3cccc(F)c3)nc2c2ccccc21)N1CCN(c2ccccc2F)CC1 | -12% | -4%
COc1ccc(C)cc1S(=O)(=O)NC1CCCCCC1 | i | -7%
CCOC(=O)CSC1=C(C#N)C(c2ccccc2C)C2=C(CCCC2=O)N1 (centres undefined) | -15% | -5%
CCc1noc(C)c1C(=O)N(C)CC(=O)Nc1ccc(Br)cc1C | i | -14%
CC(=O)N1CCN(c2ccc(NC(=O)c3cccc(C)c3)cc2)CC1 | -19% | -18%
CCOc1ccc(/C=N/NC(=O)c2csc(C)c2C)c(OCC)c1 | -3% | -2%
CCc1nnc2c(NCc3cccc(OC)c3)nc3ccccc3n12 | -13% | -16%
CC(C)Sc1nnc([C@@H]2CCCN2C(=O)OC(C)(C)C)o1 | / | 3%
O=C(COC(=O)c1cc(-c2cccs2)nc2ccccc12)c1ccc(F)cc1 | 2% | 2%
Cc1cccc(C)c1N=Cc1c(O)n(-c2nccs2)c(=O)c2ccccc12 | -25% | ?
CC(C)n1nc(C(=O)Oc2cc(Cl)ccc2Cl)c2ccccc2c1=O | -13% | 1%
CCCCC(C(=O)NC1CCCC1)N(Cc1ccco1)C(=O)Cn1nnc(-c2ccc(F)cc2)n1 (centres undefined) | -11% | -29%
O=C(Cn1cc(C(F)(F)F)ccc1=O)N/N=C/c1cccc(Cl)c1Cl | i | -10%
COc1ccc(NC(=O)Cc2c[nH]c3ccccc23)cc1S(=O)(=O)N1CCCCC1 | -8% | 0%
CN(C)C(=O)CCc1ccc2c3c([nH]c2c1)[C@]1(C)[C@@H](C(=O)N2CCOCC2)C[C@H](CC(=O)NCCc2ccccn2)C(=O)N1CC3 | -12% | -4%
Nc1ncnc2nc(SCCOc3ccc(Cl)cc3)[nH]c12 | -2% | -12%
Cn1cc(S(=O)(=O)c2ccccc2)c(=O)c2cc(F)c(N3CCCCCC3)cc21 | -21% | -24%

# More records:
SMILES | VACV mCherry inh | Vaccinia Venus
COc1ccc(NC(=O)C(c2ccc(OC)cc2)n2c(=O)c(-c3cc4ccccc4[nH]3)nc3ccccc32)cc1 (centres undefined) | -22% | -21%
Cc1ccc2cccc(S(=O)(=O)N3CCN(c4cccc(Cl)c4)CC3)c2n1 | -20% | -13%
CC(C)CCN(CC(=O)NC(C)(C)C)C(=O)C(=O)Nc1ccc2c(c1)OCCO2 | i | -6%
CC1CCN(S(=O)(=O)c2ccc3nc(NCc4ccccc4)ccc3c2)CC1 | -17% | -10%
CC(=O)N1CCCC(C)(C(=O)N(C)Cc2cccc3ccccc23)C1 (centres undefined) | i | 1%
CCCCCCCc1nn2c(=O)cc(O)nc2s1 | -10% | -3%
COc1ccc(-c2nc(-c3ccccc3)c(-c3cccs3)[nH]2)cc1OC | -27% | -16%
Cc1c(C(=O)NNC(=O)c2csc(N3CCOCC3)n2)oc2ccc(Br)cc12 | -13% | -11%
Cc1ccc2nc(-c3ccc(Br)cc3)cc(C(=O)NCC3CCCO3)c2c1 (centres undefined) | i | -17%
CC(=O)c1ccc(N2CCN(S(=O)(=O)c3ccc4c(c3)NC(=O)CC(=O)N4)CC2)cc1 | 10%[7.34 µM] | 0%[7.34 µM]
O=C1C(C2=NC(c3ccccn3)C3C(=O)N(c4ccc(Cl)cc4Cl)C(=O)C23)=C(O)c2ccccc21 (centres undefined) | -2% | -6%
C[C@H](O)[C@@H]1CN2CCc3c([nH]c4ccccc34)[C@@H]2C[C@@H]1N(C)Cc1cc(Cl)cc(Cl)c1 | -5% | -13%
O=C(c1ccc(-n2nc(C(F)(F)F)c3c2CCCC3)cc1)N1CCOCC1 | i | -22%
O=C(C1CCN(S(=O)(=O)c2cccc3nsnc23)CC1)N1CCc2ccccc2C1 | i | -16%
CCOc1ccc(CNC(=O)CCn2cccn2)cc1OC | -16% | -19%
CCOc1ccc(C2C(=O)N(C3CCCCCC3)CC(=O)N2CCc2ccccc2)cc1OC (centres undefined) | -9% | -9%
CCCc1nn2c(=O)cc(COC(=O)c3ccco3)nc2s1 | -14% | -2%
CCn1c(CN2CCCCC2)nc2cc(NC(=O)c3ccc([N+](=O)[O-])cc3)ccc21 | -29% | ?

# Arranged by heavy-atom count (lowest first): some entries from above
SMILES | VACV mCherry inh | Vaccinia Venus
CC(=O)N1CCCC(C)(C(=O)N(C)Cc2cccc3ccccc23)C1 (centres undefined) | i | 1%
CC(C)CCN(CC(=O)NC(C)(C)C)C(=O)C(=O)Nc1ccc2c(c1)OCCO2 | i | -6%
O=C1C(C2=NC(c3ccccn3)C3C(=O)N(c4ccc(Cl)cc4Cl)C(=O)C23)=C(O)c2ccccc21 (centres undefined) | -2% | -6%
